PABP polyA inh – PABP-poly(A) binding inhibition; inhibition, % at 35 µM; 290,000 tested, 1% active; AID 2014; PABP-poly(A) RNA binding, fluorescence polarization; P11940;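 active means 50% or more with normal probe brightness, or confirmed in later tests; about a fifth of its hits are not listed in these tables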;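 further: calls also rest on retests at 20 µM and on dose response follow-up; controls were probe without protein and protein plus probe with vehicle; some compounds called inactive have numbers as strong as hits; many hits fall short of the cut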
Yeast UUG start – modulators of start codon recognition fidelity in yeast | S. cerevisiae UUG-firefly luciferase reporter, luminescence/redox ratio | activity score, % at 18.7 µM | 350,000 tested, 0.13% active | AID 602363;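 active means replicate mean at a twofold rise or more, about +100% in these data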;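 further: firefly luciferase made from a UUG start codon reports start codon fidelity; reporter light over untreated wells divided by growth signal over untreated wells; some hits fall short of that in this replicate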
eIF4H inh – inhibitors of RNA binding by human eIF4H; Q15056; eIF4H fluorescence polarization binding assay; inhibition, % at 35 µM; 290,000 tested, 0.94% active; AID 2012;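 active means 50% or more with normal probe brightness, or confirmed in later tests; about a fifth of its hits are not listed in these tables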;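 further: calls also rest on retests at 20 µM and on dose response follow-up; 0% = protein and probe with vehicle and 100% = probe without protein; strong numbers were not always called active; many hits fall short of the cut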
CSC inhib – blocks cancer stem cells; cancer stem cell-like cells viability, luminescence; inhibition, % at 7.5 µM; 300,000 tested, 1.1% active; AID 2717;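 active means mean at 75% or more and at least half the replicates too; tested in HMLE shEcad cells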;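 further: 0% = median of negative and 100% = median of positive control wells; the first replicate is given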
Rce1 inh – yeast Ras-converting enzyme inhibition. calls only. 290,000 tested, 0.27% active. AID 2563. yeast membranes, quenched prenylated peptide cleavage fluorescence;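 active means fall in fluorescence gain of 50% or more versus controls, with final raw signal at or below 3038400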;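 further: plate controls were neutral control wells for no effect and wells lacking membranes for full effect; tested at 10 µM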
Target sequence (Q03530 whole entry, looked up): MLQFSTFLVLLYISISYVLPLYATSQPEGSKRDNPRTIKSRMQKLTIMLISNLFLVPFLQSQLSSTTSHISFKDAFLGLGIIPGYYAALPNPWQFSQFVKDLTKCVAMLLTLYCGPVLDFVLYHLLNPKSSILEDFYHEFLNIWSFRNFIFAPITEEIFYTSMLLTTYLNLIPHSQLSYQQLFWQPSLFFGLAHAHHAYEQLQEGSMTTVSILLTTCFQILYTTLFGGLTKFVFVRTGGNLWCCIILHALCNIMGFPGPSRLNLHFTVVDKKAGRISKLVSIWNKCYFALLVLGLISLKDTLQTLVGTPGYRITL
Numbers without * were called inactive; i = inactive; · = not tested or not shown. Not all compounds are listed, so the mix of outcomes need not match the whole.

SMILES	PABP polyA inh	Yeast UUG start	eIF4H inh	CSC inhib	Rce1 inh
Cc1[nH][nH]c(=O)c1C(c1ccc(-c2ccc(Cl)cc2Cl)o1)c1c(C)[nH][nH]c1=O	15	·	5	·	·
COc1ccc(/C(O)=C2/C(=O)C(=O)N(CCCN(C)C)C2c2cccnc2)cc1 (stereo not given)	5	·	5	·	·
Cc1cc(N2CCN(C3CCCC3)CC2)n2ncc(-c3ccccc3)c2n1	6	·	1	·	·
O=c1c2ccccc2oc2nc3ccn(Cc4ccncc4)c(=O)c3cc12	-4	·	-7	·	·
COC(=O)c1cc2c(=O)n3ccccc3nc2n(C)c1=N	-1	·	-3	·	·
CCN(CC)CCOC(=O)c1ccc(NC(=S)NC(=O)/C=C/c2ccco2)cc1	·	·	·	-9	i
O=C(O)CCC1c2cc3c4cc2OC2Oc5cc6c(cc51)C(CCC(=O)O)c1cc5c7cc1OC(O6)c1cc6cc(c1)Oc1cc(cc(C(=O)O)c1)Oc1cc8cc(c1)C(Oc1cc(c(cc1C5CCC(=O)O)C3CCC(=O)O)OC(O4)c1cc(cc(c1)Oc1cc(cc(C(=O)O)c1)O8)Oc1cc(cc(C(=O)O)c1)Oc1cc(cc2c1)Oc1cc(cc(C(=O)O)c1)O6)O7 (stereo not given)	·	·	·	18	i
CC1(O)C(=O)C=C2C=C(c3ccsc3)OC=C2C1=O (stereo not given)	·	·	·	0	i
COCCNc1nc(-c2cc(C(=O)Nc3ccccc3)on2)cc(C(C)C)n1	·	·	·	-2	i
CC1(OC(=O)c2cnc3ccccc3n2)C(=O)C=C2C=C(C3CC3)OC=C2C1=O (stereo not given)	·	·	·	-6	i
C=C1CCN(c2ccc(C(=O)O)cc2[N+](=O)[O-])CC1	·	·	·	14	i
CC1(C)C=Cc2c(ccc(-c3coc4cc(O)ccc4c3=O)c2O)O1	·	·	·	9	i
CC(C)Sc1nnc2n(CCc3ccccc3)c(=O)c3c4c(sc3n12)COC(C)(C)C4	·	·	·	2	i
COc1ccc(N2CCCn3c2nc2c3c(=O)n(CCCc3ccccc3)c(=O)n2C)cc1	·	·	·	-10	i
COc1ccc2c(c1)C=Cc1ccccc1O2	·	·	·	20	i
COC(=O)C[C@](O)(CCCC(C)(C)O)C(=O)O[C@@H]1C(OC)=C[C@]23CCCN2CCc2cc4c(cc2[C@H]13)OCO4	·	·	·	98*	i
CCCC[C@@H]1CNC(=O)C(=O)N1CCc1cccc2ccccc12	·	·	·	-10	i
Cc1cccc(C)c1NC(=O)C(C)N (stereo not given)	·	·	·	-6	i
CCO[C@H]1OC(C(N)=O)=C[C@@H](C2CC2)[C@@H]1CCCO	·	·	·	-4	i
CCC(c1nnnn1C(C)(C)C)N(Cc1cccs1)Cc1cc2cc(C)c(C)cc2n2nnnc12 (stereo not given)	·	·	·	-4	i
Cc1ccc(-c2ccc3c(c2)S(=O)(=O)c2ccccc2C3=O)cc1	·	·	·	-11	i
Cc1cc(C)c2cc(C#N)c(N3CCCN(S(=O)(=O)c4ccccc4)CC3)nc2c1	·	·	·	2	i
COc1ccc(-c2nnc(SCC(=O)N3CCCC3)o2)cc1OC	·	·	·	-15	i
COC(C[C@@H]1O[C@H]1[C@H](O)[C@@H](C)OCc1ccccc1)OC	·	·	·	-20	i
N[C@@H](Cc1cc(I)c(Oc2cc(I)c(O)c(I)c2)c(I)c1)C(=O)O	·	·	·	46	i

Some of the entries so far, with each value named:
SMILES: CCN(CC)CCOC(=O)c1ccc(NC(=S)NC(=O)/C=C/c2ccco2)cc1
  PABP polyA inh = ·	Yeast UUG start = ·	eIF4H inh = ·	CSC inhib = -9	Rce1 inh = i
SMILES: Cc1ccc(-c2ccc3c(c2)S(=O)(=O)c2ccccc2C3=O)cc1
  PABP polyA inh = ·	Yeast UUG start = ·	eIF4H inh = ·	CSC inhib = -11	Rce1 inh = i
SMILES: COc1ccc2c(c1)C=Cc1ccccc1O2
  PABP polyA inh = ·	Yeast UUG start = ·	eIF4H inh = ·	CSC inhib = 20	Rce1 inh = i

(more compounds)
SMILES	PABP polyA inh	Yeast UUG start	eIF4H inh	CSC inhib	Rce1 inh
C#CCOCCOCCOCCNc1nc(N2CCN(C(=O)C([C@@H](C)CC)n3cc(C(N)CC(C)C)nn3)CC2)nc(N2CCN(C(=O)[C@H](CCCCN)n3cc(C(N)COC(=O)C(F)(F)F)nn3)CC2)n1 (stereo not given in full)	·	·	·	-3	i
CC(=O)OC1CCC2(C)C(CCC3C2CC(OC(C)=O)C2(C)C3C[C@@H]3O[C@]4(CC[C@@H](C)CO4)[C@@H](C)C32)C1 (stereo not given in full)	·	·	·	-18	i
O=C1c2ccccc2S(=O)(=O)c2cc(N3CCc4ccccc4C3)ccc21	·	·	·	-10	i
CC(Cc1ccc(O)c(O)c1)C(C)Cc1ccc(O)c(O)c1 (stereo not given)	·	·	·	35	i
O=C1N[C@H](C(=O)O)CS1	·	·	·	3	i
CC(C)(C)c1cc(O)c(C(C)(C)C)cc1O	·	·	·	7	i
O=C(CC(=O)c1ccccc1[N+](=O)[O-])c1ccccc1	·	·	·	-1	i
COC(=O)C1=C(C(=O)OC)[C@@H]2N(Cc3ccccc3)c3ccccc3[C@@]23C[C@@H](C(=O)OC)N(C(=O)C2CCC2)C3=N1	·	·	·	-5	i
COC(=O)CCCC1=CC2=CC(=O)C(C)(OC(=O)c3cccs3)C(=O)C2=CO1 (stereo not given)	·	·	·	1	i
CC(C)CCNC(=O)Cn1c(NCCC(C)C)nc2c1c(=O)n(C)c(=O)n2C	·	·	·	1	i
Brc1ccc(-c2nnc(-c3cccnc3)c3conc23)cc1	·	·	·	-21	i
COc1ccc(-c2csc(NC(=O)c3ccc(C(C)(C)C)cc3)c2C(=O)O)cc1	·	·	·	37	i
COc1cc(C[C@@H](CO)[C@H](CO)Cc2ccc(O)c(OC)c2)ccc1O	·	·	·	-16	i
O=C(Nc1ccccc1)Nc1ccc(O)c2ccccc12	·	·	·	98*	i
CC1(C)S[C@@H]2[C@H](N=CN3CCCCCC3)C(=O)N2[C@H]1C(=O)O	·	·	·	-8	i
CC1(OC(=O)c2ccc(Cl)nc2)C(=O)C=C2C=C(c3ccc(C#N)cc3)OC=C2C1=O (stereo not given)	·	·	·	13	i
C#CCOCCOCCOCCNc1nc(N2CCN(C(=O)C([C@@H](C)CC)n3cc(C(N)COC(=O)C(F)(F)F)nn3)CC2)nc(N2CCN(C(=O)[C@H](CCCCN)n3cc(C(N)CC(C)C)nn3)CC2)n1 (stereo not given in full)	·	·	·	-9	i
CCOC(=O)c1cccc(NC(=O)c2c(N)n(C)c(=O)[nH]c2=O)c1	·	·	·	-2	i
COC/C=C/C1=CC2=CC(=O)C(C)(OC(=O)c3cnc4ccccc4n3)C(=O)C2=CO1 (stereo not given)	·	·	·	6	i
Cc1cccc2cc(C#N)c(SCCN3CCCCC3)nc12	·	·	·	1	i
CN1CCN(c2ccccc2NS(=O)(=O)c2ccc3c(c2)CCN3C(=O)C2CCC2)CC1	·	·	·	2	i
COC(C/C=C\C(=O)COCc1ccccc1)OC	·	·	·	3	i
CC(C)=CCC12Oc3cc(O)ccc3C1(O)Oc1cc(O)c([C@H]3C=C(C)CC(c4ccc(O)cc4O)[C@H]3C(=O)c3ccc(O)cc3O)c(O)c1C2=O (stereo not given in full)	·	·	·	-10	i
O=C(C[C@H]1CC[C@@H]2[C@H](COC[C@H](O)CN2C(=O)Nc2ccc(Cl)cc2)O1)N1CCCCC1	·	-2	·	·	·
C[C@H](CO)N1C[C@H](C)[C@@H](CN(C)Cc2ccc(-c3ccccc3)cc2)Oc2ccc(NC(=O)CCCN(C)C)cc2C1=O	·	-5	·	·	·

Look-ups from the entries so far:
CC(C)(C)c1cc(O)c(C(C)(C)C)cc1O in CSC inhib → 7
CCC(c1nnnn1C(C)(C)C)N(Cc1cccs1)Cc1cc2cc(C)c(C)cc2n2nnnc12 (stereo not given) in CSC inhib → -4

(further entries)
SMILES	PABP polyA inh	Yeast UUG start	eIF4H inh	CSC inhib	Rce1 inh
Cc1cccc(-c2ccc([C@H]3[C@H]4CN(Cc5cncnc5)CCCCN4[C@H]3CO)cc2)c1	·	-10	·	·	·
COc1ccccc1C(=O)N1C[C@H]2[C@@H](c3ccccc31)[C@H](CO)N2C(=O)C1CC1	·	-1	·	·	·
C[C@@H]1CN([C@H](C)CO)C(=O)c2cc(NS(=O)(=O)c3ccccc3)ccc2O[C@H]1CN(C)Cc1ccncc1	·	-3	·	·	·
C[C@H](CO)N1C[C@H](C)[C@H](CN(C)C(=O)Nc2ccc(C(F)(F)F)cc2)Oc2c(NS(C)(=O)=O)cccc2C1=O	·	-4	·	·	·
O=C(Nc1cccc(Cl)c1)N1C[C@H]2[C@@H](c3ccccc31)[C@H](CO)N2CC1CCCCC1	·	-2	·	·	·
C[C@@H]1CN([C@@H](C)CO)C(=O)Cc2cc(NS(C)(=O)=O)ccc2O[C@H]1CN(C)Cc1ccc(Oc2ccccc2)cc1	·	7	·	·	·
CN(C)C(=O)c1cccc(-c2ccc3c(c2)[C@H]2[C@H](CCN2C(=O)C2CC2)[C@H](CO)N3)c1	·	0	·	·	·
C[C@H]1CN([C@@H](C)CO)C(=O)c2cc(NC(=O)Nc3ccccc3)ccc2O[C@@H]1CN(C)S(C)(=O)=O	·	13	·	·	·
CO[C@@H]1CN(C)C(=O)c2ccc(NC(=O)c3nc4ccccc4s3)cc2OC[C@H](C)N(Cc2cncnc2)C[C@@H]1C	·	8	·	·	·
O=C(CN1CCOCC1)N1CCCCN2[C@H](CO)[C@@H](c3ccc(C#Cc4ccccc4)cc3)[C@@H]2C1	·	4	·	·	·
O=C(CN1CCOCC1)N1CCCCN2[C@H](CO)[C@@H](c3ccc(C#Cc4ccccc4)cc3)[C@H]2C1	·	21	·	·	·
C[C@@H]1CN([C@H](C)CO)C(=O)c2cc(NC(=O)Cn3cnnn3)ccc2O[C@@H]1CN(C)C(=O)Nc1ccc2c(c1)OCO2	·	2	·	·	·
COc1ccccc1NC(=O)N1CCCCN2[C@H](C1)[C@H](c1ccc(C#CC3CC3)cc1)[C@@H]2CO	·	63	·	·	·
CN1C[C@@H]2[C@H](c3ccccc31)[C@H](CO)N2C(=O)C1CC1	·	-14	·	·	·
CN1[C@@H]2c3ccc(/C=C/c4ccccc4)c(=O)n3C[C@@H]2[C@@H](CO)[C@@H]1C(=O)NC1CCC1	·	-12	·	·	·
O=C(NCC1CCCCC1)[C@@H]1N[C@@H]2c3ccc(C4=CCCC4)c(=O)n3C[C@@H]2[C@H]1CO	·	2	·	·	·
Cc1cccc(-c2ccc([C@H]3[C@@H](CO)N4CCCCN(S(=O)(=O)c5ccccc5F)C[C@H]34)cc2)c1	·	-2	·	·	·
COc1ccccc1-c1ccc([C@@H]2[C@H](CO)N3CCCCN(C(=O)c4cccnc4)C[C@@H]23)cc1	·	3	·	·	·
CC(C)NC(=O)N1CC[C@@H]2[C@@H](CO)N(C)c3ccc(-c4cccc(F)c4)cc3[C@@H]21	·	54	·	·	·
CN(C)C(=O)[C@@H]1[C@@H](CO)[C@@H]2Cn3c(cccc3=O)[C@@H]2N1C(=O)C1CCCCC1	·	-9	·	·	·
C[C@@H]1CN([C@H](C)CO)C(=O)c2cccc(NC(=O)Nc3ccc(F)cc3)c2O[C@H]1CN(C)S(=O)(=O)c1ccc(Cl)cc1	·	-15	·	·	·
COc1ccccc1S(=O)(=O)N1CC[C@@H]2[C@H]1c1cc(-c3ccc(F)cc3)ccc1N(C)[C@H]2CO	·	1	·	·	·

Fetched by structure from the entries so far, 6 records:
SMILES	PABP polyA inh	Yeast UUG start	eIF4H inh	CSC inhib	Rce1 inh
O=C(CN1CCOCC1)N1CCCCN2[C@H](CO)[C@@H](c3ccc(C#Cc4ccccc4)cc3)[C@H]2C1	·	21	·	·	·
CO[C@@H]1CN(C)C(=O)c2ccc(NC(=O)c3nc4ccccc4s3)cc2OC[C@H](C)N(Cc2cncnc2)C[C@@H]1C	·	8	·	·	·
O=C(NCC1CCCCC1)[C@@H]1N[C@@H]2c3ccc(C4=CCCC4)c(=O)n3C[C@@H]2[C@H]1CO	·	2	·	·	·
CN1[C@@H]2c3ccc(/C=C/c4ccccc4)c(=O)n3C[C@@H]2[C@@H](CO)[C@@H]1C(=O)NC1CCC1	·	-12	·	·	·
C[C@@H]1CN([C@@H](C)CO)C(=O)Cc2cc(NS(C)(=O)=O)ccc2O[C@H]1CN(C)Cc1ccc(Oc2ccccc2)cc1	·	7	·	·	·
O=C(Nc1cccc(Cl)c1)N1C[C@H]2[C@@H](c3ccccc31)[C@H](CO)N2CC1CCCCC1	·	-2	·	·	·
